Compound activity: PubChem, several laboratories
Rce1 inh: blocks yeast Ras-converting enzyme; yeast membranes, quenched prenylated peptide cleavage fluorescence; calls only; 290,000 tested, 0.27% active;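 active = fall in fluorescence gain of 50% or more versus controls, with final raw signal at or below 3038400; inconclusive = same 50% fall but final raw signal above 3038400; inactive = fall in fluorescence gain under 50%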;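 also: plate controls were neutral control wells for no effect and wells lacking membranes for full effect; tested at 10 µM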
Target sequence (Q03530 whole entry, looked up): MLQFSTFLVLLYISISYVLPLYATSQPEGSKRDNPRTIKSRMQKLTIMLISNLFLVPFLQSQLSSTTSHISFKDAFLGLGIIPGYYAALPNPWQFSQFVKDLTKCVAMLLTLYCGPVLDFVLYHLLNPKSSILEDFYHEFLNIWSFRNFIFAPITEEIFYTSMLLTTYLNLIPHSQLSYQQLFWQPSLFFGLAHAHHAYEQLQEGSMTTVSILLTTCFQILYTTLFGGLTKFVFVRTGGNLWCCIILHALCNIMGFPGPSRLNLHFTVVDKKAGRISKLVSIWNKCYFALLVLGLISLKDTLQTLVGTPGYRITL
eIF4H inh: inhibitors of RNA binding by human eIF4H. Q15056. eIF4H fluorescence polarization binding assay. inhibition, % at 35 µM. 290,000 tested, 0.94% active. AID 2012;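 active = 50% or more with normal probe brightness, or confirmed in later tests; inconclusive = above 50% with abnormal brightness, or retests that disagree; inactive = below 50% or failed in later tests; about a fifth of its hits are not listed in these tables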;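 also: calls also rest on retests at 20 µM and on dose response follow-up; 0% = protein and probe with vehicle and 100% = probe without protein; strong numbers were not always called active; many hits fall short of the cut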
Env fusion inh: blocks HIV Env-driven cell-cell fusion. inhibition, % at 12.3 µM. AID 651610. 360,000 tested, 1.1% active. HeLa-JRFL Env/CEM21 cell fusion, luciferase;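 active = mean replicate inhibition score of at least 50 and every replicate individually at or above 50; inconclusive = only one of the two criteria met; inactive = mean below 50 and not all replicates reaching 50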;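 also: 0% = plate neutral controls and 100% = maraviroc near 300 nM; one replicate is shown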
Yeast UUG start: modulators of start codon recognition fidelity in yeast; S. cerevisiae UUG-firefly luciferase reporter, luminescence/redox ratio; activity score, % at 18.7 µM; 350,000 tested, 0.13% active; AID 602363;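 active = replicate mean at a twofold rise or more, about +100% in these data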;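 also: firefly luciferase made from a UUG start codon reports start codon fidelity; reporter light over untreated wells divided by growth signal over untreated wells; some hits fall short of that in this replicate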
CSC inhib: blocks cancer stem cells | 300,000 tested, 1.1% active | AID 2717 | cancer stem cell-like cells viability, luminescence | inhibition, % at 7.5 µM;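 active = mean at 75% or more and at least half the replicates too; inconclusive = mean and replicates disagree; tested in HMLE shEcad cells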;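 also: 0% = median of negative and 100% = median of positive control wells; the first replicate is given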
MT1-MMP act inh: inhibitors of human MT1-MMP activation; P50281; HT1080 RFP-PRO-GFP cells, GFP/RFP ratio fluorescence, overnight; percent of plate control window, DMSO zero; GFP/RFP ratio change, % at 20 µM; 360,000 tested, 0.061% active;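 active = GFP/RFP ratio change of at least 30% with cell ATP level not reduced by more than half and red fluorescence within 50% of control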; also: strong numbers were not always called active
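Assay system: HT1080 cells carrying an RFP-PRO-GFP reporter | Dosing: Single dose of 20 µM compound, 1% DMSO final | Incubation: Cells overnight before dosing, compound overnight, 37 °C, 5% CO2 | Evaluation: GFP/RFP fluorescence ratio | Control set: DMSO and RFP-L50D-GFP cell wells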
PABP FP inh: blocks human PABP binding to poly(A) RNA; fluorescence polarization; inhibition, % at 35 µM; 290,000 tested, 1% active;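 active = 50% or more with normal probe brightness, or confirmed in later tests; inconclusive = above 50% with abnormal brightness, or retests that disagree; inactive = below 50% or failed in later tests; about a fifth of its hits are not listed in these tables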;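 also: calls also rest on retests at 20 µM and on dose response follow-up; controls were probe without protein and protein plus probe with vehicle; some compounds called inactive have numbers as strong as hits; many hits fall short of the cut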
MT1-MMP act inh RFP: also measured in MT1-MMP act inh; calls as there; RFP signal change, %; measured here: RFP expression control read;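 0 = vehicle wells; hits needed this value within 50% of zero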
* = called active by the depositor; i = inactive; u = inconclusive; x = no result given; + = active, no number. The order is random, and some 2.9% of all compounds hit somewhere here.

mol	Rce1 inh	eIF4H inh	Env fusion inh	Yeast UUG start	CSC inhib	MT1-MMP act inh	MT1-MMP act inh RFP	PABP FP inh
O=C(CCCOc1ccc(Cl)cc1Cl)N1CCCc2ccccc21	i	-5	x	-13	-2	-4	-3	-3
COc1ccc(NC(=O)CNS(=O)(=O)c2ccc(Cl)cc2)cc1	i	3	x	-20	5	4	2	10
N#Cc1c(N)c(C(=O)c2ccc(Cl)cc2)n2c1CCC2	i	-3	x	-10	-3	1	-2	0
Cc1occc1C(=O)NNC(=O)C1CCCCC1	i	-13	-16	-7	-9	-10	1	-5
COC(=O)c1ccc(C2NC(=O)CCC2[N+](=O)[O-])cc1 (configuration not stated)	i	-6	-5	-10	-2	x	x	3
Cc1ccc(C)c(C(=O)O/N=C(\N)c2ccc(Br)cc2)c1	i	-8	10	9	0	-4	-4	-4
Cc1nn(CCC(=O)NNC(=S)Nc2ccc(F)cc2)c(C)c1Br	i	-1	-5	x	-6	4	6	4
CCOc1cc(/C=C2\NC(=O)NC2=O)cc([N+](=O)[O-])c1O	i	-2	-11	0	5	23	4	17
CCCCCN(C(=O)CCC(=O)OCC(=O)NCCc1ccccc1)c1c(N)n(CCCC)c(=O)[nH]c1=O	x	x	-10	-5	x	-3	-2	x
CN(C)CCCn1c(SCc2ccc(Cl)cc2)nnc1-c1ccncc1	i	7	-7	-2	-7	1	5	3
O=C(N/N=C/c1ccc(OCc2ccccc2)cc1)c1ccncc1	i	6	-2	4	6	-1	2	4
CCc1ccc(-c2nnn(Cc3nn[nH]n3)n2)cc1	i	2	-23	-5	4	-3	2	14
O=C(c1ccccc1)c1ccccc1C(=O)N1CCOCC1	i	2	x	x	2	2	8	-3
CCOc1ccc(/C=C/C(=O)Oc2ccc(OC)cc2)cc1	i	-4	5	-17	-3	0	0	6
COc1ccc(/C=N/NC(=O)c2ccc3nc[nH]c3c2)c(OC)c1OC	i	4	-2	346*	-4	3	0	6
COc1ccc(S(=O)(=O)Nc2cc(S(=O)(=O)c3ccccc3)c(O)cc2C)cc1	i	-3	3	-21	x	-1	-3	5
Cc1ccc(-c2nnc(SCC(N)=O)n2C)cc1	i	6	-47	-9	-5	-6	0	-4
Cc1onc(-c2ccccc2)c1C(=O)N1CCc2ccccc21	i	6	x	15	-10	8	-3	9
COc1ccc(Cl)cc1-c1nc(-c2ccc(NC(=O)c3cccs3)cc2)no1	i	-2	x	x	6	7	-3	36
Cc1ccc(NC(=S)NNC(=S)NC2CCCCC2)cc1	i	20	-43	x	8	1	-1	10

Limited to MT1-MMP act inh RFP, CSC inhib and Yeast UUG start (five entries from above):
SMILES,MT1-MMP act inh RFP,CSC inhib,Yeast UUG start
COC(=O)c1ccc(C2NC(=O)CCC2[N+](=O)[O-])cc1 (configuration not stated),x,-2,-10
Cc1ccc(NC(=S)NNC(=S)NC2CCCCC2)cc1,-1,8,x
COc1ccc(NC(=O)CNS(=O)(=O)c2ccc(Cl)cc2)cc1,2,5,-20
Cc1ccc(-c2nnc(SCC(N)=O)n2C)cc1,0,-5,-9
Cc1ccc(C)c(C(=O)O/N=C(\N)c2ccc(Br)cc2)c1,-4,0,9

(more compounds)
mol	Rce1 inh	eIF4H inh	Env fusion inh	Yeast UUG start	CSC inhib	MT1-MMP act inh	MT1-MMP act inh RFP	PABP FP inh
O=C(Nc1ccc(N2CCOCC2)c(Cl)c1)c1cccnc1	i	-4	x	-19	-10	0	3	2
CC(C)Oc1cccc(C(=O)C2CCCN(Cc3cccn3-c3cccnc3)C2)c1 (configuration not stated)	i	-3	7	-17	x	0	-8	-6
COc1ccc(S(=O)(=O)c2c(C)c(NS(=O)(=O)c3ccccc3)cc(C)c2O)cc1	i	-3	6	x	15	-1	0	4
COc1ccc(CCN(C)CCc2ccc(OC)c(OC)c2)cc1OC	i	x	13	4	4	-1	1	x
COC(=O)[C@]1(CC(C)C)N[C@H](c2ccc(-c3ccc(C(C)=O)cc3)cc2)[C@@H]2C(=O)N(C)C(=O)[C@@H]21	x	x	16	-9	x	0	3	x
CSc1ccc(CNC(=O)C2CCC(=O)N(CCc3ccc(Cl)cc3)C2)cc1 (configuration not stated)	x	x	-6	-8	x	-1	-6	x
CC(C)NC(=O)c1cc2ccccc2o1	i	0	-127	-14	-3	3	7	1
Cc1nn(C(C)C)c(C)c1CN1CCN(Cc2ccsc2)C(CCO)C1 (configuration not stated)	i	-7	-3	x	-8	1	-3	-5
CCOC(=O)CSc1nc(C2CC2)nc2ccccc12	i	-4	-2	-6	-5	4	1	10
COC(=O)c1ccccc1NC(=O)c1cc2n(n1)C(C(F)F)CC(C(F)F)N2 (configuration not stated)	i	-12	x	62	-1	2	2	0
Cc1ccc(S(=O)(=O)N2CCC(C(=O)O)CC2)cc1C(=O)O	x	-6	x	-8	-9	-6	2	13
CS(=O)(=O)N(CC(=O)N1CCN(c2ccccc2)CC1)c1ccc(Cl)c(C(F)(F)F)c1	i	-16	-14	-11	3	1	-16	-4
Cc1ccc(-c2nn(-c3ccccc3)cc2C(=O)N2CCN(c3ccccn3)CC2)cc1	i	5	5	x	-3	-3	-8	1
CCc1c(C)nc(SCC(=O)CC(=O)OC(C)C)c(C#N)c1C	i	-14	-39	-14	-6	6	9	11
CCOC(=O)C(C)Sc1nc2ccccc2c(=O)n1CC (configuration not stated)	x	7	x	25	5	0	5	0
COc1cc(Cl)c(C)cc1NC(=O)CN(C)C1CCS(=O)(=O)C1 (configuration not stated)	x	x	6	-7	-2	11	-1	x
C=CCn1c(-c2ccc(OC)c(OC)c2)n[nH]c1=S	i	1	-489	-20	3	7	2	-1
O=C(O)c1ccc(-n2cccn2)nc1	i	0	3	x	-4	1	5	-6
COc1cc(NC(=O)c2ccc(Cl)cc2)c(OC)cc1NC(=O)CN1CCOCC1	i	-12	x	x	-1	-3	-2	-7
Cc1oc2cc([N+](=O)[O-])c(O)c([N+](=O)[O-])c2c1C(=O)c1ccc(Br)cc1	i	7	5	x	51	8	-1	2

In the list so far, three contain bromine.
mol	Rce1 inh	eIF4H inh	Env fusion inh	Yeast UUG start	CSC inhib	MT1-MMP act inh	MT1-MMP act inh RFP	PABP FP inh
Cc1ccc(C)c(C(=O)O/N=C(\N)c2ccc(Br)cc2)c1	i	-8	10	9	0	-4	-4	-4
Cc1nn(CCC(=O)NNC(=S)Nc2ccc(F)cc2)c(C)c1Br	i	-1	-5	x	-6	4	6	4
Cc1oc2cc([N+](=O)[O-])c(O)c([N+](=O)[O-])c2c1C(=O)c1ccc(Br)cc1	i	7	5	x	51	8	-1	2

Continued:
mol	Rce1 inh	eIF4H inh	Env fusion inh	Yeast UUG start	CSC inhib	MT1-MMP act inh	MT1-MMP act inh RFP	PABP FP inh
CCc1[nH]c(=O)c(C#N)c2c1CCCC2	i	-1	-22	-15	-7	-3	-3	10
CCOC(=O)c1ccc(NC(=O)Cc2cccs2)cc1	i	23	-4	-20	2	-1	-6	-11
C=CC[n+]1c(-c2ccc(OC)cc2)csc1NNC(=O)Nc1ccccc1	i	70*	x	-16	x	-61	-5	70*
COc1ccc(OC)c(-c2csc(NC(=O)CSc3ccc(Br)cc3)n2)c1	i	-15	-10	x	43	-8	-4	-12
CC(=O)N1c2ccc(S(=O)(=O)NCCC(=O)NCCc3ccc(C)cc3)cc2CC1C (configuration not stated)	i	-8	9	-38	-11	3	-8	-5
CCOC(=O)N1CCN(C(=O)/C(=C/c2cccs2)NC(=O)c2ccc(OC)c(OC)c2)CC1	i	1	5	11	x	3	5	11
CCSc1nc2c(c(=O)n(C)c(=O)n2C)n1Cc1ccc(Cl)cc1	i	x	x	-1	0	-4	-6	x
COc1ccc(CN(Cc2ccccn2)S(=O)(=O)c2ccc(-n3cnnn3)c(OC)c2)cc1	x	-10	x	-3	-3	16	4	-7
COc1ccc(C(=O)NCC(c2ccco2)N2CCc3ccccc32)c(OC)c1 (configuration not stated)	i	x	9	-3	39	-4	-10	x
CNc1nc(C)nc(-c2ccccc2O)n1	i	-9	-60	-14	2	1	2	5
CCOC(=O)C1=C(Cn2cnc3ccccc32)NC(=O)NC1c1cc(C)ccc1C (configuration not stated)	i	0	x	x	x	-12	-5	-8
Cc1cc(NC(=O)c2ccc(COc3ccccc3Cl)o2)no1	i	-6	1	-5	38	2	-2	17
COc1ccc2c(c1)CC(C)C/C2=N\NC(=O)c1ccco1 (configuration not stated)	i	-6	15	x	-5	-1	-2	-2
COc1cc(-c2c(C#N)c(N)nc3c2c(C)nn3-c2ccc(C)c(C)c2)cc(OC)c1OC	+	16	u	-17	12	-26	-16	20
NCCCC[C@@H]1NC(=O)c2cc([N+](=O)[O-])cc(I)c2SC[C@@H](C(=O)NCC(N)=O)NC(=O)CNC1=O	i	-8	x	16	1	1	5	0
CCc1ccc(C(=O)NNc2ccc(Cl)cc2)cc1	i	-3	-40	x	99*	4	6	5
CN1/C(=C/C=N/n2cnnc2)C(C)(C)c2ccccc21	i	1	x	x	-7	11	9	0
Nc1ccc2nc(CN3CCOCC3)[nH]c2c1	i	-2	x	-4	-7	-4	1	28
CCNC(=S)Nc1ccc(OCc2nc3ccccc3s2)cc1	i	-3	1	-34	-4	1	-1	-1
CC(=O)OC(C(=O)N1CCN(c2ccc(F)cc2)CC1)c1ccccc1 (configuration not stated)	i	-2	x	-11	-4	1	2	7
CSc1nnc(NC(=O)c2cc(=O)c3cc(C)cc(C)c3o2)s1	i	8	-5	-4	-11	1	0	15
N#Cc1ccc(C23CC4(C2)[C@H](CN(Cc2cccnc2)[C@@H]4c2ccccc2)C3c2ccccc2)cc1 (some centres not stated)	i	-11	21	-15	28	-2	-18	0
CN(C)S(=O)(=O)c1ccc(N2CCCC2)c(C(=O)NC2CCCCC2)c1	i	x	6	x	-9	0	1	x
CN(C)CCCNc1cc(O)c2ncccc2c1	x	x	9	21	x	-1	0	x
COc1ccc(OCc2nnc(SCC(=O)NNC(=O)c3ccc(C)cc3)n2C)cc1	i	-2	-2	x	-6	5	11	-2
CC(C)Oc1ccc(Cn2c(-c3ccco3)n[nH]c2=S)cc1	i	-10	x	1	0	-3	-2	3

Taken from above.
Under Yeast UUG start, N#Cc1ccc(C23CC4(C2)[C@H](CN(Cc2cccnc2)[C@@H]4c2ccccc2)C3c2ccccc2)cc1 (some centres not stated) reads -15
Under Yeast UUG start, CN(C)CCCNc1cc(O)c2ncccc2c1 reads 21

Rce1 inh, hit marks shown above.
SMILES | Rce1 inh | Env fusion inh | Yeast UUG start | MT1-MMP act inh | MT1-MMP act inh RFP
COc1cc(-c2c(C#N)c(N)nc3c2c(C)nn3-c2ccc(C)c(C)c2)cc(OC)c1OC | + | u | -17 | -26 | -16
